Assay outcomes from PubChem.
Calb FLC: C. albicans growth modulation with fluconazole. C. albicans CaCi-2 (fluconazole-resistant clinical isolate) + fluconazole, Alamar Blue growth, 48 h. growth inhibition, % (no concentration beside the values). 300,000 tested, 0.57% active;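 active = most replicates above 75%; inconclusive = exactly half above 75%; inactive = most below 75%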;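 note: all wells also contain fluconazole at 8 µg/ml as a sub-toxic cotreatment; 0% = median of DMSO wells and 100% = median of geldanamycin control wells; wells of about 8 µL received 7.5 nL stock; the first replicate is given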
Beta2AR agonist: activates human beta-2 adrenergic receptor causing internalization; 340,000 tested, 0.43% active; response, % (no concentration beside the values); P07550; Am2.2-beta2AR cells, FAP receptor internalization, flow cytometry; reference of the scale not given here;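 active = response above a set limit, near 3 SD of response in nonfluorescent compounds, cut at about 42% in these data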;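 note: stock transfer was 100 nL into about 11 µL; a reference agonist was the positive control; negative values mostly stem from fluorescent compounds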
Target sequence (P07550 whole entry, looked up): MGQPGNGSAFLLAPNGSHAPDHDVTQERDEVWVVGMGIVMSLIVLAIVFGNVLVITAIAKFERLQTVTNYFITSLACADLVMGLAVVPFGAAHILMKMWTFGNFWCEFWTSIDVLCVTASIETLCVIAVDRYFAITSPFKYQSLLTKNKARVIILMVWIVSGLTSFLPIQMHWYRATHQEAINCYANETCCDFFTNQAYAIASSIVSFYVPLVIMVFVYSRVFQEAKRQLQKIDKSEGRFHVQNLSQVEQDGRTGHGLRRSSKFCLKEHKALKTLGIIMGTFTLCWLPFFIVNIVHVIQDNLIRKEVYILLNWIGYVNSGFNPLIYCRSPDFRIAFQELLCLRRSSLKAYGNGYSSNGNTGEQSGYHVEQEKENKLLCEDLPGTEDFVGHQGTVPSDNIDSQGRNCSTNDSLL
LANA-H2B inh: blocks KSHV LANA binding to histone H2A/H2B; inhibition, % (test concentration not listed); Q9QR71; cell-free LANA-H2A/H2B peptide, fluorescence polarization; 320,000 tested, 0.6% active; AID 2629; in the data active = inhibition mostly above about 10%, no sharp cut-off; inactive = mostly below about 6.7%;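 note: stock transfer was 7.5 nL into about 10 µL; 0% = median of vehicle wells and 100% = median of positive control wells; one replicate is shown; the record names a cut of 25% in any replicate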
ALR inh: inhibitors of human sulfhydryl oxidase ALR | purified ALR, DTT oxidation, H2O2 HRP-luminol luminescence | 290,000 tested, 3.8% active | inhibition, % (concentration not given with the values) | P55789;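 active = mean and each replicate at 75% or more; inconclusive = only one of the two met; inactive = neither met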;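 note: stock transfer was 7.5 nL into about 7.5 µL; 0% = neutral wells and 100% = wells with inactivated enzyme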
Target sequence (P55789 whole entry, looked up): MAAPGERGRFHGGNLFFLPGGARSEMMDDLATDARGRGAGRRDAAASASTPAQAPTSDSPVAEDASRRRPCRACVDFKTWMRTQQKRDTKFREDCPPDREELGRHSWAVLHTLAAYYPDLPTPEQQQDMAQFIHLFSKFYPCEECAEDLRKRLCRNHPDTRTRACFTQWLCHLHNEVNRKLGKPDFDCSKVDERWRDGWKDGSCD
Vif TR-FRET: inhibitors of Vif binding to APOBEC3G peptide, primary screen, biochemical, TR-FRET, GST-Vif 1-94, biotin-A3G peptide, dose response retest (AID 1117319). TR-FRET GST-Vif / biotin-A3G peptide binding; higher % means a stronger effect; test concentration not given here; strong numbers were not always called active. one-dose inhibition, %; IC50 in µM for titrated hits. 260,000 tested, 0.57% active;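 active = above the screen mean plus three standard deviations and confirmed in dose response; inconclusive = results disagree or hit not tested in dose response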;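 note: Vif residues 1-94 fused to GST binding biotinylated APOBEC3G peptide 110-148; 0% = full assay without inhibitor and 100% = GST in place of GST-Vif; retest series ran down from 100 µM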
RanGTP-Imp inh: inhibitors of RanGTP-importin-beta interaction, primary screen, biochemical, FRET, CFP-Ran, YFP-importin-beta, homogeneous; cell-free CFP-Ran/YFP-importin-beta FRET ratio; inhibition, % (concentration not given with the values); 300,000 tested, 1.1% active;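 active = most replicates above 15%; inconclusive = exactly half above 15%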;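 note: 0% = DMSO wells and 100% = Ran loaded with GDP instead of GTP; wells of about 40 µL received 100 nL stock; the first replicate is given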
HNF4A DNA FP: change in binding of human HNF4 alpha to DNA; 360,000 tested, 0.3% active; P41235; HNF4a-FITC DNA binding, fluorescence polarization, 1 h; AID 1224865; activity change, % at 10 µM; in the data active = activity change above about 30%, passing the limit was not always enough;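 note: controls were the assay level and a saturating level of protein; the project sought stronger binding though the title names inhibitors; some compounds called inactive have numbers as strong as hits; positive values seem to mean higher polarization but the record does not say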
* hit, by the source's call; i = inactive; ? = inconclusive; / = not tested or not shown.

Order of values – Calb FLC	Beta2AR agonist	LANA-H2B inh	ALR inh	Vif TR-FRET	RanGTP-Imp inh	HNF4A DNA FP
1) O=[N+]([O-])c1cc(C(F)(F)F)ccc1N1CCN(S(=O)(=O)c2ccc3ccccc3c2)CC1
  -5	9	-0.8	-3	71%	0.7	7.7
2) O=C(NC(=S)Nc1ccc(Br)cc1)C1CCC1
  -28	-14	-0.8	-2	/	2.0	0.2
3) O=C(Nc1ccc(OC(F)(F)C(F)F)c(NC(=O)c2ccc(F)cc2)c1)c1ccc(F)cc1
  -1	2	1.5	/	/	1.0	2.2
4) CC(CC(=O)N1CCc2ccccc21)S(=O)(=O)c1ccc2c(c1)NC(=O)CO2 (centres undefined)
  -6	-1	4.2	6	/	5.9	3.8
5) COc1ccc(OC)c(NC(=O)CCCc2ccccc2)c1
  2	-2	3.5	-11	/	3.7	-1.6
6) O=C1c2oc3ccccc3c(=O)c2C(c2cccc(O)c2)N1c1ccccn1 (centres undefined)
  27	-13	2.5	-9	1%	2.3	0.7
7) CCOC(=O)N1CCN(C(=O)CSc2nnc(C3COc4ccccc4O3)o2)CC1 (centres undefined)
  9	-2	3.1	-10	6%	-3.0	2.5
8) COc1ccc(C2c3ccc(O)cc3Oc3ncn(Cc4ccco4)c(=N)c32)cc1 (centres undefined)
  1	-3	2.1	16	18%	3.1	-26
9) COC(=O)/C=C(\C)N=Nc1c(O)[nH]c2ccccc12
  -23	18	2.2	/	/	0.4	4.3
10) CN1CCN(C(=O)C2=C[C@H](c3coc4ccccc4c3=O)C[C@H](OCCCCO)O2)CC1
  4	-5	-5.2	-4	-3%	-4.0	0.9
11) C=CCn1c(O)c(CN2CCOCC2)c(C)c(C#N)c1=O
  3	4	0.9	-26	0%	7.7	-4.4
12) O=C(OCn1nnc2ccccc2c1=O)c1ccc2c(=O)n3c(nc2c1)CCC3
  0	3	-2.0	45	-4%	6.9	2.0
13) O=C(NCC1CCCO1)[C@@H]1CSC2c3ccccc3C(=O)N21 (some centres undefined)
  -16	0	5.6	-17	1%	-4.1	2.5
14) CC12CCC(c3nnc(SCc4ccc(Cl)cc4)nc31)C2(C)C (centres undefined)
  -6	3	-2.2	-5	-8%	-1.3	0.9
15) Cc1ccc(NC(=S)N(CCCN2CCN(C)CC2)Cc2cccs2)cc1C
  -9	3	3.1	-2	16%	-2.3	0.3
16) CCCCn1c(N)c(N(CCC(C)C)C(=O)c2ccc(C)o2)c(=O)[nH]c1=O
  /	-2	9.1	6	0%	/	4.0
17) Cc1ccccc1N1CCN(C(=O)CCN2C(=O)c3ccccc3C2=O)CC1
  43	-9	-8.8	4	-6%	4.3	-0.4
18) CC(=O)Cn1nnc2sc(-c3ccccc3)cc2c1=O
  13	3	-3.2	-5	26%	?	6.0
19) CS(=O)(=O)N1CCN(C(=O)CCC2CCCC2)CC1
  -3	-4	-5.5	-23	?	3.1	0.5
20) O=C(O)c1cccc(CSc2n[nH]c(-c3ccc(Cl)cc3Cl)n2)c1
  3	-6	-1.4	5	-2%	-0.8	0.8
21) S=c1[nH]nc(CSc2nc3ccccc3s2)n1C1CCCCC1
  -8	0	-0.8	-1	5%	2.9	-7.5
22) COc1cc2nc(N(C)C)nc(N)c2cc1OC
  -1	13	2.2	/	-6%	2.4	0.7
23) CC1=NN(/C(=N\c2nnc(C)s2)Nc2ccc(C(C)(C)C)cc2)[C@H](c2ccc(C)cc2)S1
  27	1	-1.1	/	-7%	-0.3	6.7
24) COc1cccc(-n2nc(C(=O)Nc3ccc4c(c3)OCO4)c3ccccc3c2=O)c1
  -2	3	0.1	-1	-2%	-4.2	1.7
25) COc1ccc(/C=N/NC(=O)CN(C2=NS(=O)(=O)c3ccccc32)c2ccccc2)cc1OC
  -5	2	-0.5	-16	/	-1.1	-3.5
26) CN(C)CCCN(C(=O)c1ccco1)c1nc(-c2ccc(Cl)cc2)cs1
  1	5	-3.6	0	/	3.3	-1.0
27) COc1ccc(-c2nsc(SCC(=O)Nc3ccc4c(c3)OCO4)n2)cc1
  -6	-1	-2.7	-13	1%	7.3	0.3
28) N#C/C(=C/c1ccc(Oc2ccc([N+](=O)[O-])cn2)cc1)C(=O)N1CCOCC1
  -12	2	2.0	0	/	-3.4	-4.7
29) COCCNC(=O)c1ccccc1NC(=O)c1ccccc1N(C)S(=O)(=O)c1ccc(C)cc1
  -1	5	-1.2	-18	23%	-0.6	-0.2
30) CCCCCCSc1ccc([C@H]2N[C@@](CC(C)C)(C(=O)OC)[C@H]3C(=O)N(C)C(=O)[C@@H]23)cc1OC
  12	2	4.0	-7	/	5.4	0.9

More entries:
Order of values – Calb FLC	Beta2AR agonist	LANA-H2B inh	ALR inh	Vif TR-FRET	RanGTP-Imp inh	HNF4A DNA FP
31) O=S(=O)(Cc1ccccc1)Nc1ccc(Br)cn1
  -6	4	4.5	-11	9%	-0.4	-1.3
32) Cc1cc(-c2nnc(SCC(=O)c3ccc4c(c3)OCCO4)o2)no1
  15	6	5.7	32	-49%	6.3	1.1
33) C=CCNC(=O)COc1ccc(Oc2ccccc2)cc1
  ?	-5	0.9	4	-6%	-1.4	-1.8
34) CN(C(=O)c1ccccc1C(=O)OCC(=O)NC(=O)NC(C)(C)C)C1CCCCC1
  -8	-7	2.2	-3	-2%	-2.1	10
35) Cc1nnsc1C(=O)Nc1ccc(S(=O)(=O)N2CCCCC2C)cc1 (centres undefined)
  2	5	0.4	-6	/	-3.5	-1.0
36) O=C(CN(C(=O)c1csnn1)c1cccc(Cl)c1)NCCc1ccccc1
  -2	-5	2.3	-1	/	?	2.6
37) O=S(=O)(Nc1cc(Cl)ccc1-n1cncn1)c1ccccc1Cl
  /	5	3.3	17	/	/	2.8
38) Cc1ccc(N2C(=O)CSC2c2ccccn2)cc1Cl (centres undefined)
  6	4	-3.4	99*	-5%	1.4	0.0
39) CCC(C)NC(=O)[C@H](CSCc1ccccc1)N1Cc2ccccc2C1=O (some centres undefined)
  -2	6	-2.2	26	-3%	-0.9	1.4
40) CCCCN1C(=O)/C(=C/C=C2\Oc3ccccc3N2CC)SC1=S
  17	i	/	/	/	-5.9	117
41) Cc1nc2ccccc2nc1OCC(=O)Nc1ccc2ccccc2c1
  -4	4	-9.5	0	/	-0.7	2.1
42) COc1cc(CCC(=O)OCC(=O)NC(=O)c2ccc(Cl)cc2)cc(OC)c1OC
  12	2	-0.1	-1	/	4.4	4.2
43) Cc1ccc(/C=N/NC(=O)c2cccc(S(=O)(=O)Nc3ccccc3Cl)c2)s1
  13	1	-0.1	0	31%	-3.1	2.2
44) O=C(c1cccc(S(=O)(=O)N2CCOCC2)c1)N(Cc1ccc(F)cc1)Cc1ccco1
  1	1	0.8	-2	7%	0.8	-1.0
45) CC1CCC(NC(=O)CN2CCN(S(=O)(=O)c3cccs3)CC2)CC1 (centres undefined)
  /	-6	-4.3	/	/	/	6.9
46) O=C(Nc1ccnn1C1CCN(Cc2ccc(C#CCCO)cc2)CC1)c1cccc(F)c1
  0	7	-2.9	-8	5%	-2.2	-3.5
47) O=C(O)c1cc([N+](=O)[O-])ccc1NCc1cccnc1
  -7	8	-2.2	-10	3%	-1.0	0.8
48) Cn1c(=O)c2c(nc(CN3CCOCC3)n2CCN2CCOCC2)n(C)c1=O
  0	13	1.7	2	71%	-0.9	0.2
49) COCCNC(=O)Cn1nc(C(F)(F)F)c(Br)c1C
  -11	4	-3.7	-6	-3%	-4.2	0.2
50) Cc1c(C)n(CCN(C)C)c2ncnc(NCc3ccccc3)c12
  4	-1	-1.5	5	-15%	-3.3	-1.9
51) COc1cc(C(=O)Nc2nccs2)ccc1OCc1c(C)noc1C
  26	-13	0.0	/	9%	-1.7	1.9
52) Cc1cccc(-c2n[nH]c(=S)n2/N=C/C=C/c2ccco2)c1
  -4	5	-1.2	97*	?	1.3	-2.3
53) CCn1c(=O)c(C(=O)CN2CCN(S(=O)(=O)c3ccccc3)CC2)c(N)n(Cc2ccccc2)c1=O
  -5	6	-3.7	/	-6%	0.5	1.5
54) CN(C)C(=O)c1c([N+](=O)[O-])c(C(C)(C)C)nn1C
  -2	-8	/	/	/	2.2	1.0
55) CC12CCC(=O)N1C(C(=O)Nc1cccc(S(=O)(=O)N3CCCCC3)c1)CS2 (centres undefined)
  2	3	-1.4	-3	-3%	-1.8	-0.4
56) c1cc(N2CCCC2)ccc1C(c1nnnn1C1CCCCC1)N1CCOCC1 (centres undefined)
  -32	-1	5.1	5	9%	-14	4.5
57) COc1cc(-c2nc3cnccn3c2NC(C)(C)CC(C)(C)C)ccc1O
  2	-2	4.5	99*	-1%	-1.1	1.4
58) Cc1ccc(-c2nc(CS(=O)CC(=O)NCCN3CCCCCC3)c(C)o2)cc1 (centres undefined)
  3	0	10	98*	-1%	1.7	2.2
59) COc1ccccc1N=Cc1c(C)[nH]n(-c2ccc(C)cc2C)c1=O
  1	-11	1.3	3	23%	-1.0	-6.7
60) O=C(NC(=S)N1CCN(c2nc(-c3ccccc3)cs2)CC1)c1cccnc1
  -13	11	-1.4	48	-6%	-7.4	4.3

Reprinted at random: 2 entries already listed
Order of values – Calb FLC	Beta2AR agonist	LANA-H2B inh	ALR inh	Vif TR-FRET	RanGTP-Imp inh	HNF4A DNA FP
20) O=C(O)c1cccc(CSc2n[nH]c(-c3ccc(Cl)cc3Cl)n2)c1
  3	-6	-1.4	5	-2%	-0.8	0.8
53) CCn1c(=O)c(C(=O)CN2CCN(S(=O)(=O)c3ccccc3)CC2)c(N)n(Cc2ccccc2)c1=O
  -5	6	-3.7	/	-6%	0.5	1.5

Remaining list, next part.
Order of values – Calb FLC	Beta2AR agonist	LANA-H2B inh	ALR inh	Vif TR-FRET	RanGTP-Imp inh	HNF4A DNA FP
61) Cc1ccnc(NS(=O)(=O)c2ccc(C(C)(C)C)cc2)c1
  -1	/	3.7	-9	/	6.1	/
62) CCOc1ccc(-n2c(SCC(=O)Nc3cc(C)on3)nc3c(c2=O)SCC3)cc1
  34	-6	1.3	5	3%	2.5	-1.0
63) COc1ccc(-c2nnc3ccc(SCC(=O)N4CCOCC4)nn23)cc1
  1	/	-6.6	/	/	-0.2	2.0
64) Cc1c(C(=O)N2CCCCC2)c(S(=O)(=O)N(C)Cc2ccccc2)c(C)n1C
  -2	-3	6.1	1	/	-1.0	0.2
65) COc1cc(N=Cc2c(O)[nH]c3ccccc23)cc(OC)c1OC
  -1	4	-4.9	97*	-6%	-0.2	0.2
66) CCOC(=O)N1CCC(NC(=O)CSCc2nc(-c3ccc(OCC)cc3)oc2C)CC1
  3	-2	2.6	99*	/	3.1	1.3
67) Cc1ccccc1CNC(=O)C1CCCN(c2cnccn2)C1 (centres undefined)
  -5	-3	/	-3	0%	3.1	2.6
68) COc1ccc(/C=N\NC(=O)C2=NNC(=O)C2C)cc1 (centres undefined)
  -14	1	1.7	64	?	-1.9	-0.5
69) COc1cc2cc(C(c3nnnn3Cc3ccc(F)cc3)N3CCCCCC3)c(=O)[nH]c2cc1OC (centres undefined)
  9	24	8.2	/	5%	/	-0.7

The order is random; about 6.3% have a hit in one of these screens.
